# Vif TR-FRET = inhibitors of Vif binding to APOBEC3G peptide, primary screen, biochemical, TR-FRET, GST-Vif 1-94, biotin-A3G peptide, dose response retest (AID 1117319) | TR-FRET GST-Vif / biotin-A3G peptide binding; higher % means a stronger effect; test concentration not given here; strong numbers were not always called active | inhibition, %; hits with a dose series show IC50 in µM | actives 0.57% (n = 260,000);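 active means above the screen mean plus three standard deviations and confirmed in dose response; inconclusive means results disagree or hit not tested in dose response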;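 further: Vif residues 1-94 fused to GST binding biotinylated APOBEC3G peptide 110-148; 0% = full assay without inhibitor and 100% = GST in place of GST-Vif; retest series ran down from 100 µM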
# MLL AF4-AF9 inh = blocks AF4 peptide binding to human AF9; P42568; AlphaScreen, biotin-AF4 peptide binding to FLAG-AF9; inhibition, % at 10 µM; actives 0.47% (n = 350,000); AID 651704;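 active means every replicate reaching a set inhibition limit, whatever the replicate mean, cut at about 25% in these data; inconclusive means mean inhibition reaches that limit but some replicates miss it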;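 further: 0% = plate neutral control median and 100% = total signal loss; the record names both 10 and 1 µM as test concentration; the first replicate is given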
# Target sequence (P42568 whole entry, looked up): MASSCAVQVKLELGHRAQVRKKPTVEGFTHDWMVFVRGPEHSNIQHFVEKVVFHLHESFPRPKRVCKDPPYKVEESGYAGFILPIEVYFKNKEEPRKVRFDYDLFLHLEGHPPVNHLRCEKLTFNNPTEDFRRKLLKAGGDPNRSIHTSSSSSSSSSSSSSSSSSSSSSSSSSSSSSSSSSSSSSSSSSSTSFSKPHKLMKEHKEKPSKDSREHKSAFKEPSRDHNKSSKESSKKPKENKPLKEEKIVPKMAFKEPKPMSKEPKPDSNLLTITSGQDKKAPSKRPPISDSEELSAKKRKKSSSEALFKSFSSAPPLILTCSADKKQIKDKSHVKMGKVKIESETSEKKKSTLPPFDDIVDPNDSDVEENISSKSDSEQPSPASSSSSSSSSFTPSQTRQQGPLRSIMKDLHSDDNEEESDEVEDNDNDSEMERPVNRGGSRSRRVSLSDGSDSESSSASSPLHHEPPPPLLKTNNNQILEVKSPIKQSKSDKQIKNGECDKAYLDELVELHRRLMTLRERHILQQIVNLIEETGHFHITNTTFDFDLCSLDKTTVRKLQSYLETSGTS
# Numbers without * were called inactive; ? = inconclusive; & = joins results of further samples.
1	CC(=O)c1ccc(OCC(=O)N2CCN(S(=O)(=O)c3ccc(Br)s3)CC2)cc1
2	CN(C)S(=O)(=O)c1cccc(NC(=O)c2cccc(N3C(=O)CCC3=O)c2)c1
3	CCOC(=O)c1ccc(NC(=O)Nc2nncs2)cc1
4	CCc1ccccc1OCC(=O)Nc1ccc(N2CCCC2)cc1C
5	C=CCOc1ccc(/C=C/C(=O)OCC(=O)NCc2cccc(OC)c2)cc1
6	Cc1ccc(NC(=O)COC(=O)c2oc3ccccc3c2C)cc1S(=O)(=O)N1CCOCC1
7	CCOC(=O)C(C#N)=CN1CCNc2ccccc21
8	C=C1C(=O)OC2C=C(CO)CCC=C(CO)CC(OC(=O)C(C)C)C12 (centres undefined)

Compound,1,2,3,4,5,6,7,8
Vif TR-FRET,1%,-4%,0%,-3%,8%,-5%,-5%,11%
MLL AF4-AF9 inh,0.7,-0.8,0.3,7.9,-3.7,0.3,-22,-3.9

# One compound at a time, as listed above. Values in the order: Vif TR-FRET	MLL AF4-AF9 inh
# C=C1C(=O)OC2C=C(CO)CCC=C(CO)CC(OC(=O)C(C)C)C12 (centres undefined) across the screens: 11%	-3.9
# CCOC(=O)C(C#N)=CN1CCNc2ccccc21 across the screens: -5%	-22

# More records follow.
9	COc1cc(C(=O)N(C)C2CCCCC2)cc(OC)c1OC
10	C/C(COc1ccccc1)=N\NC(=O)c1nnn(-c2nonc2N)c1CSc1ccc(C)cc1
11	Nc1ccc2c(O)cc(S(=O)(=O)O)cc2c1
12	CN(C)S(=O)(=O)c1ccc(C(=O)NN2C(=O)NC3(CCCCC3)C2=O)cc1
13	O=CNc1c(Cl)cc2c(c1Cl)Cc1cc([N+](=O)[O-])ccc1-2
14	O=C(Nc1ccc(Cl)c(S(=O)(=O)N2CCCCC2)c1)c1ccncc1
15	COC(=O)CCC(C)C1CCC2C3CCC4CC(O)CCC4(C)C3=CC(=O)C12C (centres undefined)
16	COc1ccc(OC)c(NP2(=O)OCC(C)([N+](=O)[O-])CO2)c1 (centres undefined)

Compound,9,10,11,12,13,14,15,16
Vif TR-FRET,2%,7%,9.4µM*,-1%,-5%,2%,1%,-2%
MLL AF4-AF9 inh,-2.2,-2.3,-6.1,1.3,0.0,-33,-1.2,1.6

# Five entries from above, as tab-separated lines.
No.	smiles	Vif TR-FRET	MLL AF4-AF9 inh
9	COc1cc(C(=O)N(C)C2CCCCC2)cc(OC)c1OC	2%	-2.2
10	C/C(COc1ccccc1)=N\NC(=O)c1nnn(-c2nonc2N)c1CSc1ccc(C)cc1	7%	-2.3
11	Nc1ccc2c(O)cc(S(=O)(=O)O)cc2c1	9.4µM*	-6.1
12	CN(C)S(=O)(=O)c1ccc(C(=O)NN2C(=O)NC3(CCCCC3)C2=O)cc1	-1%	1.3
13	O=CNc1c(Cl)cc2c(c1Cl)Cc1cc([N+](=O)[O-])ccc1-2	-5%	0.0

# Next section:
17	O=C(O)c1ccc(S(=O)(=O)N2CCCCCCC2)cc1
18	CC1(C)NC(=O)N(CCCC(=O)Nc2ccc(C(F)(F)F)cc2)C1=O
19	CC(O)CNC1c2ccccc2CC1O (centres undefined)
20	CN(C(=O)c1cccc(NC(=O)Cc2ccc(NC(=O)C3CCN(C(=O)C4CCCC4)CC3)cc2)c1)C1CCCC1
21	CCOCC(=O)NC1CCc2cc(OC)c(OC)c(OC)c2-c2ccc(SC)c(=O)cc21 (centres undefined)
22	COc1ncnc2c1ncn2CCCN1CCN(c2ccccn2)CC1
23	COc1cccc(-c2cc(C(=O)O)c3cc4ccccc4cc3n2)c1OC
24	CN(CC(=O)Nc1c(Cl)cccc1Cl)C(=O)c1ccc2ccccc2n1

Compound,17,18,19,20,21,22,23,24
Vif TR-FRET,2%,8%,-6%,9%,1%,-4%,1%,3%
MLL AF4-AF9 inh,-2.0,-1.5,-47,6.6,-0.4,-1.2,-2.1,-3.2

25	O=C(COC(=O)c1cc(S(=O)(=O)N2CCCCC2)ccc1Cl)NC1CCCCC1
26	CC(=O)c1c(C)[nH]c(C(=O)OCC(=O)N(Cc2ccccc2)C(C)(C)C)c1C
27	Cc1ccccc1OCC(O)COc1ccccc1C
28	Cc1cc(C(=O)COC(=O)c2cccc(S(=O)(=O)N(C)C)c2)c(C)n1CC1CCCO1 (centres undefined)
29	CN(Cc1ccc(F)cc1)C(=O)CN1CCN(S(=O)(=O)c2ccc3c(c2)OCCCO3)CC1
30	O=C(N/N=C/c1ccc(Cl)cc1)c1ccc2nc[nH]c2c1
31	O=Nc1ccc(NO)c2ccccc12
32	CN1CCN(S(=O)(=O)c2ccc(F)cc2)CC1

Compound,25,26,27,28,29,30,31,32
Vif TR-FRET,-6%,6%,0%,9%,4%,-4%,5%,2%
MLL AF4-AF9 inh,-1.2,1.5,-2.8,0.7,2.6,2.6,5.7,-9.8

33	CCCn1c(N)c(N(CCOC)C(=O)c2c(CC)noc2C)c(=O)[nH]c1=O
34	CCC(=O)c1ccc(OCc2cn(CC(=O)c3ccc(O)cc3)nn2)cc1
35	C[C@H]1CN([C@@H](C)CO)C(=O)CCCn2nncc2CO[C@@H]1CN(C)Cc1cccc2c1OCCCO2
36	COc1ccc(CN(C)CCCn2cnc(C(=O)Nc3ccc(C)c(C)c3)n2)cc1OC
37	COc1ccc(S(=O)(=O)N2CCc3ccccc32)cc1C(=O)NCc1ccco1
38	CCCN(C)C[C@H]1Oc2cc(C#Cc3ccc(F)cc3)ccc2S(=O)(=O)N([C@H](C)CO)C[C@@H]1C
39	COc1ccc(C(=O)C(=NN)c2ccccc2)cc1
40	C[C@@H]1CN([C@@H](C)CO)C(=O)c2cc(NC(=O)Nc3cccc4ccccc34)ccc2O[C@@H](C)CCCCO[C@H]1CN(C)C(=O)c1ccccc1

Compound,33,34,35,36,37,38,39,40
Vif TR-FRET,2%,7%,4%,3%,0%,2%,4%,-1%
MLL AF4-AF9 inh,0.3,6.0,-3.0&-1.2,1.1,5.5,3.8&0.1&0.9,1.9,-11&-2.7

41	CC(=O)c1ccc(NC(=O)CN2CCN(S(=O)(=O)c3ccc4c(c3)OCCO4)CC2)cc1
42	Cn1cnc2c(cnn2C)c1=N
43	COc1ccc(CCC(=O)Nc2cccc(S(=O)(=O)N3CCOCC3)c2)cc1OC
44	O=C(O)C(Cc1ccnc2ccccc12)=NO
45	Cc1ccc(S(=O)(=O)N2C[C@H]3[C@H]4C(=O)N(c5ccccc5)C(=O)[C@H]4C[C@H](OC(=O)NC4CCCC4)[C@@]3(O)C2)cc1
46	CC1=C(C(=O)N2CCOCC2)CC(CC(=O)NC2CCCC2)C(=O)N1Cc1ccc(C(C)(C)C)cc1 (centres undefined)
47	CC(=O)C1CCC2C3CCC4CC(=O)CCC4(C)C3C(O)CC12C (centres undefined)
48	CCCCC(=O)N1C(C)CCC1C (centres undefined)

Compound,41,42,43,44,45,46,47,48
Vif TR-FRET,-8%,2%,-2%,-2%,0%,7%,4%,-7%
MLL AF4-AF9 inh,0.6,0.3,-2.4,-1.4,-11,-11,-2.9,0.7

# An excerpt of these results, with values under each structure.
# Results follow in this order: Vif TR-FRET	MLL AF4-AF9 inh
(28) Cc1cc(C(=O)COC(=O)c2cccc(S(=O)(=O)N(C)C)c2)c(C)n1CC1CCCO1 (centres undefined)
 : 9%	0.7
(29) CN(Cc1ccc(F)cc1)C(=O)CN1CCN(S(=O)(=O)c2ccc3c(c2)OCCCO3)CC1
 : 4%	2.6
(30) O=C(N/N=C/c1ccc(Cl)cc1)c1ccc2nc[nH]c2c1
 : -4%	2.6
(31) O=Nc1ccc(NO)c2ccccc12
 : 5%	5.7

# Other results.
49	CN(CCOc1ccc(Cl)cc1)C(=O)CNS(=O)(=O)c1ccc(N(C)C)c([N+](=O)[O-])c1
50	O[C@H]1C[C@H](c2ccc(Cl)cc2)N(CC2CCCCC2)C[C@@H]1n1cc(C2CC2)nn1
51	O=C1NN=C2CCCCCCC12 (centres undefined)
52	CN(C)C=Nc1ccc([N+](=O)[O-])c2ccccc12
53	CCN1CCC(O)(/C=C/c2ccc(C)cc2)C(C(=O)/C=C/c2ccc(C)cc2)C1 (centres undefined)
54	CCCCCc1cc(OC)cc2c1C(=O)OC(C)(C)O2
55	COc1ccc(C(=O)NNC(=O)COC(=O)c2sccc2C)cc1
56	CCN(CC)C(=O)[C@H]1C[C@H](CC(=O)NCc2ccco2)C(=O)N2CCc3c([nH]c4ccc(Cl)cc34)[C@]12C

Compound,49,50,51,52,53,54,55,56
Vif TR-FRET,4%,-5%,14%,-6%,1%,-9%,-4%,-8%
MLL AF4-AF9 inh,0.0,3.4,-1.0,19,?,-2.3,-4.5,10.0

57	O=C1/C(=C\c2ccc(Cl)c(Cl)c2)CN(C(=O)CCN2CCOCC2)C/C1=C/c1ccc(Cl)c(Cl)c1
58	Cc1cccc(C(=O)OCC(=O)N2c3ccccc3CC2C)c1C (centres undefined)
59	O=C(Nc1ccccc1N1CCCCC1)c1cc(S(=O)(=O)N2CCOCC2)ccc1F
60	CC(C)c1ccc(NC(=O)COC(=O)Cn2cnc3c2c(=O)n(C)c(=O)n3C)cc1
61	O=S(=O)(O)C(c1ccccc1)C1(O)CCCCC1 (centres undefined)
62	CC(=O)c1cc2c(cc1F)C(C)(C)CCC2(C)C
63	Clc1ccc(CSc2cnnc3ccccc23)cc1Cl
64	Cc1noc(C)c1COc1ccccc1C(=O)NCCOc1ccccc1

Compound,57,58,59,60,61,62,63,64
Vif TR-FRET,12%,1%,-1%,-6%,-4%,2%,4%,-7%
MLL AF4-AF9 inh,7.3,-1.2,-9.0,-1.0,4.7,-17,0.0,0.1

# Entries above that contain a tert-butyl group, in the order listed:
26	CC(=O)c1c(C)[nH]c(C(=O)OCC(=O)N(Cc2ccccc2)C(C)(C)C)c1C
46	CC1=C(C(=O)N2CCOCC2)CC(CC(=O)NC2CCCC2)C(=O)N1Cc1ccc(C(C)(C)C)cc1 (centres undefined)

Compound,26,46
Vif TR-FRET,6%,7%
MLL AF4-AF9 inh,1.5,-11

# (continued)
65	O=C(CN1CCN(c2cccc(C(F)(F)F)c2)CC1)Nc1ccc2c(c1)OCCCO2
66	CC(=O)Nc1c(-c2ccc(C)cc2)nc2ccc(Cl)cn12
67	CN1C(=O)C2(CCCCC2)C1c1ccccc1 (centres undefined)
68	Cc1ccc2c(c1)P(=O)(O)c1cc(C)ccc1O2
69	C#CCN(C[C@@H]1[C@@H](OC(=O)NCc2ccc(OC)c(OC)c2)[C@@H](OC(=O)NCc2ccc(OC)c(OC)c2)Cn2c(=O)n(CCCCCC)c(=O)n21)S(=O)(=O)c1ccc(C)cc1
70	CCN(CC)CCCNc1cc(C)c(C#N)c2nc3ccccc3n12
71	O=C(Cc1cccc(F)c1)N1CCOCC1
72	CN(Cc1ccc(C(C)(C)C)cc1)C(=O)c1ccc2c(c1)OCO2

Compound,65,66,67,68,69,70,71,72
Vif TR-FRET,-6%,2%,10%,-8%,2%,-1%,3%,2%
MLL AF4-AF9 inh,-1.7,-5.7,-1.2,-1.4,-0.6,-4.8,-1.9,-1.1

73	CC(c1ccccc1)n1ccnc1CO (centres undefined)
74	O=S(=O)(Nc1cccc(F)c1)c1ccc(S(=O)(=O)N2CCOCC2)cc1
75	O=C1C(Cl)=C(Oc2ccccc2)C(=O)c2ccccc21
76	Cc1ccc(NS(=O)(=O)c2cc(C(=O)NCCCN(C)C)ccc2Cl)cc1Cl
77	COCOCCn1cc(CN2CCS(=O)(=O)N(Cc3ccc(-c4cccc(CO)c4)cc3)C(CC(C)C)C2=O)nn1 (centres undefined)
78	O=[N+]([O-])c1ccccc1N=NNc1ccccc1
79	COc1ccc(CN2CCC[C@]3(N[C@H](c4ccccc4)[C@@H]4C(=O)N(C)C(=O)[C@@H]43)C2=O)cc1
80	CCN1C(=O)[C@H]2[C@H]3CN=C(SCc4ccc(C#N)cc4)N3[C@@](Cc3ccccc3)(C(=O)OC)[C@H]2C1=O

Compound,73,74,75,76,77,78,79,80
Vif TR-FRET,-5%,7%,24µM*,4%,2%,-2%,-5%,-4%
MLL AF4-AF9 inh,-1.7,-1.3,-16,2.9,-1.5,9.9,3.1,-6.3

81	COc1ccc(CNC(=O)C2CCN(S(=O)(=O)c3cccc(C(F)(F)F)c3)CC2)cc1
82	O=C(Cc1cccc(NC(=O)C2CCCN(C(=O)C3CCC3)C2)c1)Nc1cccc(C(=O)N2CCOCC2)c1 (centres undefined)
83	O=c1[nH]c(=S)[nH]cc1Oc1ccc(Cl)cc1
84	COc1cc(/C=C2\SC(=O)N(CC(=O)Nc3cccc(C)c3)C2=O)cc([N+](=O)[O-])c1O
85	O=[N+]([O-])c1ccc(OCc2cnc(Cl)s2)cc1

Compound,81,82,83,84,85
Vif TR-FRET,11%,2%,-2%,-1%,10%
MLL AF4-AF9 inh,-0.3,-2.3,-5.6,-0.3,3.4

# Screening data deposited in PubChem BioAssay by several laboratories.

# The list is partial. The share of hits here may be higher or lower than overall.
